Source: PubChem BioAssay
HPGD block – blocks human HPGD enzyme activity | P15428 | purified HPGD, NADH fluorescence kinetic, PGE2 substrate | Potency, µM, inactives show at the top dose activity change, negative = inhibition, hits mostly inhibitors | actives 4.3% (n = 150,000); active = well fitted inhibition curve with a large enough effect (not every such curve was filed as active); inconclusive = small, poorly fitted or top-dose-only effect, or another doubt; inactive = no such curve, though single readings can be large or run the other way;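 note: top concentration of the series not given in the record; plate controls included wells without enzyme; inactives centre near -10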
Target sequence (P15428 whole entry, looked up): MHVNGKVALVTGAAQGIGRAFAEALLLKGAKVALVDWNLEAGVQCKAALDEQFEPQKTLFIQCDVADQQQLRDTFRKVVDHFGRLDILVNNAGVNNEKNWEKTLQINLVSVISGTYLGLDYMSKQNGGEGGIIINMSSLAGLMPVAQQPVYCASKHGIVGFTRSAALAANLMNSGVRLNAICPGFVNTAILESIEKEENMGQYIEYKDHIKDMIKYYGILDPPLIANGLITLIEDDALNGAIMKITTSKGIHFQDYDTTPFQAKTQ
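20 nM HPGD preincubated 15 min at room temperature with compound in 50 mM Tris-HCl pH 8, 0.01% Tween 20. Started with 1 mM NAD+ and 30 uM prostaglandin E2; NADH fluorescence (360/450 nm) read 5 times over 30-s intervals, last minus first.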
An asterisk follows results filed as active; ? = inconclusive; & = joins results of further samples. % is set by controls: 0 for no effect and ±100 for the full control effect; potency is the fitted concentration of half-maximal effect.

molecule | HPGD block
O=C(O)/C=C/C(=O)Nc1ccc(F)cc1F | -6%
COc1ccc(C(OCCN2CCC[C@@H](C(=O)O)C2)(c2ccc(OC)cc2)c2ccc(OC)cc2)cc1 | -1%
CCCCCC(=O)Nc1ccc(-c2csc(C)n2)cc1 | ?
COCC(=O)N1CCC2(CCCN(c3ccccn3)C2)CC1 | ?
COc1ccc(NC2=CC(=O)CC(c3ccccc3)C2)c(OC)c1 (centres undefined) | -3%
Cn1c(=O)c2[nH]cnc2n(C)c1=O | -6%&-18%&-3%&-16%&-1%&-9%&-8%
Cn1c(=O)[nH]c(=O)c2c1nc(SCC(=O)Nc1ccccc1)n2Cc1ccccc1 | -21%
Cc1ccc(C)c(NC(=O)COc2cccc3c2CCN(Cc2ccccc2)C3=O)c1 | -6%
C#CCOC(=O)Nc1cccn(Cc2c(Cl)cccc2Cl)c1=O | -18%
CCOc1ccc2nc(NC(=O)C(CCSC)NS(=O)(=O)c3cccs3)sc2c1 (centres undefined) | -14%
N#CC(C(=O)Nc1cccc(Cl)c1)=C1Nc2ccccc2N1 | -13%
CCOc1cc(CNCCO)cc(Br)c1OCc1cccs1 | -1%
O=C(NN=C1CCCCCCCCCCC1)c1cccc(S(=O)(=O)N2CCOCC2)c1 | -17%
O=C1CCN(S(=O)(=O)c2ccc(Cl)cc2)N1 | -8%
CC1=C(C(=O)Nc2ccc(C)cc2)C(c2ccc(N(C)C)cc2)NC(=O)N1 (centres undefined) | 3%
Cc1nn(Cc2ccccc2)c(C)c1/C=N/NC(=O)c1cccnc1 | 32µM*
O=C1CCCC(=NCc2ccco2)C1 | 2%
CCN1C(=O)/C(=C\N2CCOCC2)SC1=S | -19%
CCOC(=O)c1ccc(N=C2C(=S)N(c3ccc(C(=O)OCC)cc3)C(=N)N2/N=C/c2ccccc2)cc1 | 22µM*
CC(C)CCn1c(CN2CCN(Cc3ccccc3)CC2)nc2c1c(=O)n(C)c(=O)n2C | -6%

(continued)
molecule | HPGD block
Nc1nn(-c2ccccc2)c(N)c1N=Nc1ccccc1 | -20%
O=C(c1ccccc1)n1nnc2ccccc21 | ?
C=C(C)C(O)/C=C/c1ccc(Br)cc1 (centres undefined) | -2%
CCC/C=C(\CCC)C(NS(=O)(=O)c1cccc2cccnc12)c1ccc(-c2ccccc2)cc1 (centres undefined) | -18%
CCCCOc1ccc(NC2=NC3(CCCC3)N=C(N)N2)cc1 | -7%
O=C(O)/C=C\C(=O)Nc1ncn[nH]1 | 0%
Cc1ccc(C(=O)Nc2ccccc2C(=O)NCc2ccco2)cc1S(=O)(=O)N1CCCCC1 | ?
Cn1c(CSc2nc3ccc(Br)cc3[nH]2)nc2ccccc21 | -7%
c1ccc(-c2nc[nH]c2-c2ccccc2)cc1 | -16%
Cc1nc2cc(NC(=O)COc3ccc(C#N)cc3)ccc2n1-c1ccccc1 | -14%
C#CCn1c(=NC(=O)c2sc3ccccc3c2Cl)sc2cc(S(N)(=O)=O)ccc21 | ?
Cc1ccc(-c2nn3c(C)nnc3s2)cc1NCc1c(F)cccc1Cl | ?
COc1ccc(/C=N/NC(=O)COc2ccc(Cl)cc2Cl)cc1Cn1nc(C)cc1C | -7%
Cc1ccc2cc(CCNC(=O)c3cccs3)c(=O)[nH]c2c1 | ?
O=C(CCn1c(=O)oc2ccccc21)Nc1nccs1 | -7%
Cc1ccc(C(=O)Oc2cccc(NC(=O)c3cccs3)c2)cc1S(=O)(=O)N1CCOCC1 | -22%
Cc1ccc(Nc2nnc(SCc3ccccc3)s2)cc1 | -8%
Cc1ccc(S(=O)(=O)N2CCN(C(=O)COC(=O)COc3ccccc3)CC2)cc1 | -13%
CS(=O)(=O)N1CCN(C(=O)c2ccncc2)CC1 | -1%
CC(=O)c1sc(NC(=O)c2ccccc2F)nc1C | -11%

(list continues)
molecule | HPGD block
CNC(=S)N/N=C(\C)c1ccc2c(c1)OCCO2 | -11%
CC(C)(C)NC(=O)/C=C/c1ccc(C(F)(F)F)cc1 | -9%
COc1ccc(N=C2SC(C(N)=O)CC(=O)N2CCc2ccc(OC)c(OC)c2)cc1 (centres undefined) | -7%
NCC(O)COc1ccc2c(c1)OCO2 (centres undefined) | -19%
O=C(NCCc1c[nH]c2ccccc12)/C(=C\c1cccnc1)NC(=O)c1cccs1 | 1%
O=C(NC(=S)Nc1nc(-c2cccc3ccccc23)cs1)c1cc2ccccc2o1 | -13%
CC(=O)OCP(C)(=O)COC(C)=O | -1%
CC(C)(C)c1ccc(C(=O)N2CCC(C(=O)NCc3ccncc3)CC2)cc1 | -11%
CSCc1c(C(=O)NC2CCCc3ccccc32)oc2ccccc12 (centres undefined) | -23%
C=CC[C@@H]1C=C[C@H](O/N=C/c2ccc(C(=O)N3[C@H](c4ccc(C)cc4)[C@@H](C)CC[C@H]3C(=O)OC)cc2)[C@@H](CO)O1 | -14%
COc1ccc(-c2ccc(-c3cc(=O)oc4cc(OC)c(OC)c(OC)c34)cc2)cc1F | -2%
O=C(COC(=O)c1cccnc1Cl)c1ccccc1 | -15%
CN1CCN(C(=S)NC(=O)c2ccc(C(C)(C)C)cc2)CC1 | -17%
C#CCOCCOCCOCCNc1nc(N2CCOCC2)nc(N2CCN(C(=O)[C@H]([C@@H](C)O)n3cc(CCCCN)nn3)CC2)n1 | -6%
OC1CCCN(Cc2cccc3ccccc23)C1 (centres undefined) | 1%
COCCCNc1nc2c(c(=O)n(C)c(=O)n2C)n1Cc1cccc(OC)c1 | -7%
CC(=O)Nc1c2c3c(cccc3n(C)c1=O)C(=O)c1ccccc1-2 | -28%
CCCc1ccc(Oc2cc(Cl)nc(N)n2)cc1 | -4%
Cc1cccc(-c2noc(CCC(=O)NCc3ccco3)n2)c1 | -21%
CC(c1ccccc1)n1cc(C(=O)NCc2ccccn2)nn1 (centres undefined) | -4%

Continuation:
molecule | HPGD block
CC(CN1CCCCC1)OC(=O)c1ccc2c(c1)OCO2 (centres undefined) | 0%
COc1cc(/C=N/Nc2nc(N3CCCC3)nc(N3CCCC3)n2)ccc1O | ?
Cc1ccc(NC(=O)CSc2nnc(COc3ccc(C#N)cc3)n2-c2ccccc2)cc1C | -12%
Cc1ccc(C(C)C)c(OCCNC(=S)Nc2cccc3ccccc23)c1 | -23%
CCOC(=O)CC1=NC(=O)CS1 | -18%
Cc1cc(=O)n2nc(N3CCCC(C(=O)N4CCOCC4)C3)sc2n1 (centres undefined) | -15%
COc1ccc(CNC(=O)c2ccc(NC(=O)C3CCCO3)cc2)cc1 (centres undefined) | -27%
O=C(O)C1CC(=O)N(CCc2ccccc2)C1 (centres undefined) | 1%
COc1ccc(-c2noc(CCC(=O)NCCCN3CCC(Cc4ccccc4)CC3)n2)cc1 | -2%
COC(=O)c1ccccc1NC(=O)c1cc(C2CC2)on1 | -14%
COc1ccc(CCNC(=O)CCS(=O)(=O)c2ccc(C)cc2)cc1OC | -7%
CCOc1ccc(/C=N/NC(=O)c2cc(-c3ccco3)nc3ccccc23)cc1 | ?
CC1CCN(c2cc(N3CCOCC3)c([N+](=O)[O-])cc2F)CC1 | -21%
NC1(C(=O)NC2(C(=O)O)CCCC2)CCCC1 | -1%
CC(N=Cc1cccc(O)c1O)c1ccccc1 (centres undefined) | 2.8µM*
COc1ccc(C(C)N2CC34C=CC(O3)C(C(=O)OCC(C)C)C4C2=O)cc1 (centres undefined) | -3%
COCCn1c(=O)[nH]c(=O)c2c1nc(-c1ccc(-c3ccc(Cl)cc3[N+](=O)[O-])o1)n2Cc1ccccc1 | ?
CCCCC(CCC(=O)Nc1nccs1)C(=O)O (centres undefined) | -2%
CCCN(CCC)c1nc2ccccc2nc1C(C#N)C(=O)OCCOC (centres undefined) | -13%
CCCCCCCCCOC(=O)C[n+]1csc(CCO)c1C | 2%

Further structures:
SMILES | HPGD block
COc1ccc(Cn2nnnc2C(c2ccccc2)N2CCN(C3CCCC3)CC2)cc1 (centres undefined) | -9%
CC1CC(C)CN(c2ncc3c(n2)CC(c2ccccc2Cl)CC3=O)C1 (centres undefined) | ?
C/C(=N/N1CCN(c2ccccn2)CC1)c1cccc([N+](=O)[O-])c1 | -6%
O=[N+]([O-])c1cccc2ccc(/C=C/c3cccc(Br)c3)nc12 | -26%
CCCCc1nc(SCC(=O)Nc2ccc(S(N)(=O)=O)cc2)n[nH]1 | -16%
CC(C)N1C(=O)C2C(C(=O)NCc3ccccc3)C3C=CC2(O3)C1C(=O)NC(C)(C)C (centres undefined) | -5%
CN(C)c1nc2n(c(=O)n1)CCO2 | 3%
O=C(N/N=C/c1cccn1-c1ccc([N+](=O)[O-])cc1)C(O)c1ccccc1 (centres undefined) | -16%
O=C(Nc1cccc(-c2nc3ncccc3o2)c1)c1ccco1 | -23%
COc1ccccc1N1C(=O)C2C3CC(c4ccccc4)C(C3)C2C1=O (centres undefined) | -4%

Next entries.
SMILES | HPGD block
CCOCCCN(C(=O)Cn1nnc2ccccc21)C(C(=O)NCc1ccco1)c1ccncc1 (centres undefined) | 2%
CC(=O)NS(=O)(=O)c1ccc(NC(=O)CN2C(=O)C3C4C=CC(C4)C3C2=O)cc1 (centres undefined) | -7%
COc1ccc(S(=O)(=O)NC(C)(C)C)cc1-c1nnc2c3ccccc3c(C)nn12 | -29%
CCN1C(=O)N/C(=C/c2ccc(C)o2)C1=O | -23%
C[n+]1ccccc1/C=N\O | -1%
Cc1nnc2sc(-c3ccc(NC(=O)CSc4ccc(Cl)cc4)cc3)nn12 | -14%
O=[N+]([O-])c1ccc(N2CCN(CCO)CC2)c2ncccc12 | -9%
COc1cccc(NS(=O)(=O)c2ccc(S(=O)(=O)N3CCOCC3)cc2)c1 | -5%
O=C(C1CCN(S(=O)(=O)c2cccc3nsnc23)CC1)N1CCCc2ccccc21 | -3%
CCN1C(=O)CC2(C[N+]3(C)CCC2CC3)C1=O (centres undefined) | 4%

Other compounds
SMILES | HPGD block
C/C(Cl)=C/Cn1c(NCCCn2ccnc2)nc2c1c(=O)[nH]c(=O)n2C | -11%
Cc1c(C(=O)NCCN2C(=O)S/C(=C\c3cccs3)C2=O)cccc1[N+](=O)[O-] | -8%
COc1ccc(N(CC(=O)NCCSC2CCCCC2)S(C)(=O)=O)c(OC)c1 | 22µM*
CCOc1ccccc1N1CCN(C2=C(NS(=O)(=O)c3cccs3)C(=O)c3ccccc3C2=O)CC1 | -17%
O=C(O)CCCN=CC1=C(O)C(C(=O)c2ccccc2)CCC1=O (centres undefined) | -4%
CC(OCC(O)CN(C)CCOc1ccccc1)c1ccc(Cl)cc1 (centres undefined) | -7%
N#Cc1cn(CCOc2ccc(F)cc2)c2ccccc12 | -2%
N#CCCN(Cc1ccccc1)C(=S)NC(=O)c1ccccc1 | -25%
COc1ccc(N2CCN(C(=O)Nc3ccc(S(=O)(=O)N(C)C)cc3)CC2)cc1 | -1%
C=C(C)CN(CC)C(=O)COc1ccc(S(=O)(=O)Nc2ccc(OC)cc2)cc1 | -13%

Continuation.
SMILES | HPGD block
CCn1c(CNC(C)=O)nnc1SCC(=O)c1ccc(Br)cc1 | ?
C=CCN=C1NN=C(c2cc(C)n(CCOC)c2C)CS1 | -20%
O=C(OCC(=O)N(C1CCCCC1)C1CCCCC1)c1ccco1 | -7%
CCCCn1nc2cc(C(=O)NCc3ccccc3)ccc2c1OCC | ?
CCOC(=O)c1cc(-c2ccccc2)sc1NC(=O)C(C)OC(=O)c1ccncc1 (centres undefined) | -20%
Cc1ccc(-c2csc3nnc(SCC(=O)NCc4ccc5c(c4)OCO5)n23)cc1 | -15%
COc1cc2c(cc1OC)C1=NC(=O)CN1C(SCc1ccc(C)cc1)=N2 | -11%
O=C1COc2ccc(C(=O)NCc3ccc4c(c3)OCO4)cc2N1 | -5%
CC(C)CCn1nnnc1C(c1ccccc1F)N1CCC(C(N)=O)CC1 (centres undefined) | -10%
NS(=O)(=O)c1cc(C(=O)NCCOc2ccccc2)c(Cl)cc1Cl | 1%

Following part:
SMILES | HPGD block
O=C1CCCN1c1ccc(S(=O)(=O)Oc2cccc(Cl)c2)cc1[N+](=O)[O-] | -20%
CSc1ccc(C(=S)N2CCN(C(c3ccccc3)c3ccccc3)CC2)cc1 | 14µM*
CC(=O)/C=C(\C)Nc1ccc(-c2cnc(-c3ccccc3)o2)cc1 | ?
CCOC(=O)C1=C(c2ccccc2)N=C2SCC(=O)N2C1c1cccc(OC)c1 (centres undefined) | -15%
CCOC(=O)CCS(=O)(=O)c1nc(-c2ccccc2)cc(C(F)(F)F)n1 | 16µM*

Compounds above with two or more sulfur atoms:
SMILES | HPGD block
CCOc1ccc2nc(NC(=O)C(CCSC)NS(=O)(=O)c3cccs3)sc2c1 (centres undefined) | -14%
CCN1C(=O)/C(=C\N2CCOCC2)SC1=S | -19%
C#CCn1c(=NC(=O)c2sc3ccccc3c2Cl)sc2cc(S(N)(=O)=O)ccc21 | ?
Cc1ccc(C(=O)Oc2cccc(NC(=O)c3cccs3)c2)cc1S(=O)(=O)N1CCOCC1 | -22%
Cc1ccc(Nc2nnc(SCc3ccccc3)s2)cc1 | -8%
O=C(NC(=S)Nc1nc(-c2cccc3ccccc23)cs1)c1cc2ccccc2o1 | -13%
CCCCc1nc(SCC(=O)Nc2ccc(S(N)(=O)=O)cc2)n[nH]1 | -16%
Cc1nnc2sc(-c3ccc(NC(=O)CSc4ccc(Cl)cc4)cc3)nn12 | -14%
COc1cccc(NS(=O)(=O)c2ccc(S(=O)(=O)N3CCOCC3)cc2)c1 | -5%
O=C(C1CCN(S(=O)(=O)c2cccc3nsnc23)CC1)N1CCCc2ccccc21 | -3%
Cc1c(C(=O)NCCN2C(=O)S/C(=C\c3cccs3)C2=O)cccc1[N+](=O)[O-] | -8%
COc1ccc(N(CC(=O)NCCSC2CCCCC2)S(C)(=O)=O)c(OC)c1 | 22µM*
CCOc1ccccc1N1CCN(C2=C(NS(=O)(=O)c3cccs3)C(=O)c3ccccc3C2=O)CC1 | -17%
Cc1ccc(-c2csc3nnc(SCC(=O)NCc4ccc5c(c4)OCO5)n23)cc1 | -15%
CSc1ccc(C(=S)N2CCN(C(c3ccccc3)c3ccccc3)CC2)cc1 | 14µM*

An excerpt, so the mix of outcomes need not match the whole.
